Bioassay records from PubChem.
StopGo reporter – FMDV 2A StopGo reporter, luciferase signal | human cells with a luciferase reporter of 2A StopGo recoding; control for the full effect not named in the record | Potency, µM (top dose mostly 57.9 µM), for inactives: at the highest dose signal change, negative = less light | 410,000 compounds, 1.2% hits | AID 1159524; active = well fitted falling curve with a large enough effect; inconclusive = small, poorly fitted or top-dose-only effect; inactive = no such curve, though single readings can be large or run the other way; tested in HEK293T cells; note: % is set by controls: 0 for no effect and ±100 for the full control effect; nearly all actives have a fitted effect of over 45% in size; luciferase light after 4 h
NS1 function inh – inhibitors of influenza NS1 protein function | Potency, µM (titrated, usually from 46.1 µM), without a hit: at the top dose activity, positive = more growth | S. cerevisiae slowed by influenza A NS1, growth recovery by OD600 | 270,000 compounds, 0.4% hits; active means well fitted rising curve with a large enough effect; inconclusive means small, poorly fitted or top-dose-only effect; inactive means no such curve, though single readings can be large or run the other way; note: nearly all actives have a fitted effect of over 50% in size
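Compounds were scored for reversing the slow growth caused by influenza A NS1 in S. cerevisiae, measured by optical density at 600 nm. Assay medium contained 2% galactose at pH 6.0; NS1-free yeast of the same strain were the positive control.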
Marburg entry inh – blocks Marburg virus binding to or entry into cells. Marburg virus pseudotyped entry inhibition, cell reporter; control for the full effect not named in the record; about a third of the inactives were read at about 46 µM. Potency, µM (doses to about 37.8 µM), inactives show top-dose activity change, negative = inhibition, actives largely listed as inhibitors. 300,000 compounds, 1.8% hits; active = well fitted inhibition curve with a large enough effect; inconclusive = small, poorly fitted or top-dose-only effect, or effect the other way; inactive = flat fitted curve, though single readings scatter; tested in HEK293 cells; about a fifth of its hits are not listed in these tables; note: % is set by controls: 0 for no effect and ±100 for the full control effect; luciferase read-out
LASV entry inh – blocks Lassa virus binding to or entry into cells; Lassa virus pseudotype entry inhibition, cell reporter; control for the full effect not named in the record; Potency, µM (series often up to 37.9 µM), inactives show at the top dose activity change, negative = inhibition, hits mostly inhibitors; 300,000 compounds, 1.2% hits; AID 540256; active means well fitted inhibition curve with a large enough effect; inconclusive means small, poorly fitted or top-dose-only effect, or effect the other way; inactive means flat fitted curve, though single readings scatter; tested in HEK293 cells; note: % is set by controls: 0 for no effect and ±100 for the full control effect; nearly all actives have a fitted effect of over 50% in size; luciferase read-out
RE007 growth inh – less growth of the S. pombe RE007 Vpr strain; 360,000 compounds, 0.21% hits; Potency, µM (top dose mostly 92.2 µM), inactives show top-dose activity change, negative = less growth; S. pombe RE007 Vpr strain, BacTiter-Glo ATP luminescence, 24 h; control for the full effect not named in the record; active = well fitted falling curve with a large enough effect; inconclusive = small, poorly fitted or top-dose-only effect; inactive = no such curve, though single readings can be large or run the other way;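 note: % is set by controls: 0 for no effect and ±100 for the full control effect; nearly all actives have a fitted effect of over 50% in size; the assay follows cell death caused by Vpr and the record does not say whether a fall means rescue or toxicity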
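Fission yeast strain RE007, carrying one chromosomally integrated HIV-1 vpr copy, was seeded at OD 0.01 in PMG+AL medium with 23 nL pinned compound. After 24 h at 30 °C and 99% humidity, viability was read by BacTiter-Glo luminescence.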
Cruzain Triton – cruzain (T. cruzi) inhibition with detergent; 200,000 compounds, 0.43% hits; purified cruzain, Z-FR-AMC fluorescence, 0.01% Triton; Potency, µM, for inactives: max response, negative = inhibition, hits mostly inhibitors;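 note: plate controls were neutral wells for no effect and buffer without enzyme for full effect; nearly all actives have a fitted effect of over 40% in size; top concentration of the series not given in the record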
Target sequence (P25779 123-467 limits assumed): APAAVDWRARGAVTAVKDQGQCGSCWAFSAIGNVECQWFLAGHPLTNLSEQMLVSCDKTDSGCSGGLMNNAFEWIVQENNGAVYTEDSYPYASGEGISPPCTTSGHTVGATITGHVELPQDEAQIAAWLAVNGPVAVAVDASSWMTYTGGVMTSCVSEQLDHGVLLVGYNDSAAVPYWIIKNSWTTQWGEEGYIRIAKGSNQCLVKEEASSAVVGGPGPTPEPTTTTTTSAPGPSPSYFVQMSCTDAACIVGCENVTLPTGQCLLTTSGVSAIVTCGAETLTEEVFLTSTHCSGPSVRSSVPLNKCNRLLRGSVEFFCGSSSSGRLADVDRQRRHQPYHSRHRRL
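Cruzain (1.5 nM) preincubated 15 min at RT with compound in 100 mM sodium acetate pH 5.5, 5 mM DTT, 0.01% Triton X-100. Reaction started with 2 uM Z-FR-AMC; AMC fluorescence (ex 360/em 450 nm) change over 60 s gave rate.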
Cruzain inh noDet – blocks cruzain activity in detergent-free assay. AID 1476. Potency, µM, inactives show max response, negative = inhibition, actives largely listed as inhibitors. P25779. purified cruzain, Z-FR-AMC fluorescence, no detergent. 200,000 compounds, 2.3% hits;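 note: plate controls were enzyme without inhibitor for no effect and buffer without enzyme for full effect; nearly all actives have a fitted effect of over 40% in size; top concentration of the series not given in the record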
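Purified cruzain at 1.5 nM, pre-incubated 15 min with compound at room temperature in 100 mM sodium acetate pH 5.5, 5 mM DTT, 0.00005% Triton X-100. Reaction started with 2 uM Z-FR-AMC; AMC fluorescence increase over 60 s gives rate.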
SARS PLP yeast – blocks SARS-CoV papain-like protease in a yeast assay. S. cerevisiae expressing SARS-CoV PLpro, growth rescue; control for the full effect not named in the record. Potency, µM (top dose mostly 32.9 µM), without a hit: top-dose activity, positive = growth rescue. 330,000 compounds, 0.19% hits. AID 485353; active means well fitted rising curve with a large enough effect; inconclusive means small, poorly fitted or top-dose-only effect; inactive means no such curve, though single readings can be large or run the other way; note: 0% is about no effect; nearly all actives have a fitted effect of over 55% in size; growth read by luminescence after 48 h
* hit, by the source's call; ? = inconclusive; . = not tested or not shown; [ ] = dose if it differs, or a comment. Unless noted, calls come from the whole dose curve; as a rule, active = well fitted curve in the direction sought with a large enough effect; inconclusive = small, poorly fitted or top-dose-only effect, or another doubt; inactive = no such curve, though single readings can be large; an effect the other way counts as inactive or inconclusive. Potency is the fitted concentration of half-maximal effect.

1	O=C(Cn1c2c(sc1=O)C1c3ccccc3OCC1CS2)Nc1ccc(Cl)cc1 (configuration not stated)
2	CN1CCN(CC(=O)n2c3c(c4ccccc42)CCCC3)CC1
3	Cc1noc(C)c1S(=O)(=O)Nc1ccccc1Oc1ccccc1
4	COc1ccc(-c2oc(NC(=O)c3ccc(C)cc3)c(C#N)c2-c2ccc(OC)cc2)cc1
5	COc1ccc(NS(=O)(=O)c2cccc(C(=O)O)c2)cc1S(=O)(=O)N1CCOCC1
6	O=C(Cn1c(NCCO)nc2ccccc21)c1cccs1
7	O=C(CSc1nc(C2CC2)nc2sc3c(c12)CCCC3)NCc1ccco1
8	Clc1ccc(-c2nc(Cc3ccccc3)no2)cc1
Screen / compound no.,1,2,3,4,5,6,7,8
StopGo reporter,-18.3%,-0.2%,-14.7%,2.3%,-7.4%,-17.7%,.,6.8%
NS1 function inh,23.8%,-16.0%,-3.0%,10.5%,.,2.9%,1.3%,1.4%
Marburg entry inh,?,?,-26.7%[46.1 µM],?,?,-24.8%,13.9%,15.2%
LASV entry inh,?,-7.2%,2.6%,-24.2%,-0.3%,5.2%,6.9%,1.5%
RE007 growth inh,0.8%,-14.9%,14.2%,-9.9%,-7.2%,-2.3%,-1.9%,11.3%
Cruzain Triton,-6.5%,-6.2%,.,3.3%,.,3.4%,1.4%,0.6%
Cruzain inh noDet,?,-2.0%,.,12.6µM*,.,2.0%,-28.5%,-17.1%
SARS PLP yeast,-8.9%,2.4%,-1.5%,10.1%,-4.1%,0.6%,0.8%,11.7%

9	CC(C)CN1C(=O)C(=O)N(CC(=O)N2c3ccccc3NC(=O)CC2C)C1=O (configuration not stated)
10	O=C(Nc1ccc2c(c1)OCCO2)c1ccc(Cl)c(Cl)c1
11	CCO[C@@H]1OC(C(=O)O)=C[C@H](c2ccc3c(c2)OCO3)[C@H]1CCCO
12	Cc1cc(C)c(C#N)c(Nc2cccc(C)c2C)n1
13	CCCCNC(=O)CSc1nc2cc(OC)c(OC)cc2c(=O)n1Cc1ccc(OC)cc1
14	Cc1nc2ccccn2c1C(=O)N/N=C/c1ccc([N+](=O)[O-])cc1
15	CCC(C(=O)Nc1ccccc1F)n1nc(C)c2c(C)n(-c3ccccc3)nc2c1=O (configuration not stated)
16	Cc1[nH]c(=O)[nH]c(=O)c1S(=O)(=O)N1CCN(c2ccccc2)CC1
Screen / compound no.,9,10,11,12,13,14,15,16
StopGo reporter,-13.0%,-2.0%,8.6%,-9.8%,8.1%,22.6%,-5.4%,-14.6%
NS1 function inh,.,-2.7%,3.5%,-10.7%,14.9%,4.0%,9.3%,3.1%
Marburg entry inh,3.6%,?,.,.,0.2%,?,.,5.1%[46.1 µM]
LASV entry inh,8.6%,?,.,.,-10.3%,2.8%[46.1 µM],.,2.8%[46.1 µM]
RE007 growth inh,28.7%,9.1%,3.7%,-1.9%,2.7%,9.0%,23.6%,5.1%
Cruzain Triton,.,.,.,.,-1.2%,.,.,.
Cruzain inh noDet,.,.,.,.,-9.7%,.,.,.
SARS PLP yeast,-0.8%,-0.1%,-0.5%,1.0%,0.1%,-0.1%,2.7%,-4.3%

17	COc1ccccc1NC(=O)C(Cc1ccc(Cl)cc1)c1nn[nH]n1 (configuration not stated)
18	O=C(Nc1cccc2ccccc12)c1ccc([N+](=O)[O-])o1
19	c1ccc(SCCN2CCN(c3ccccc3)CC2)cc1
20	Cc1ccc(S(=O)(=O)N2CCN(c3nc(C)nc4sc5c(c34)CCC(C)C5)CC2)cc1 (configuration not stated)
21	COc1ccc(NC(=O)C(CC(C)C)NC(=O)C2CCCCC2)cc1 (configuration not stated)
22	Nc1c(C(=O)NCCN2CCOCC2)c2nc3ccccc3nc2n1-c1ccccc1
23	O=S(=O)(NCCc1ccccc1)c1ccc(S(=O)(=O)N2CCCCC2)cc1
24	CC(NC(=O)c1ccc(N2CCNCC2)c([N+](=O)[O-])c1)C12CC3CC(CC(C3)C1)C2 (configuration not stated)
Screen / compound no.,17,18,19,20,21,22,23,24
StopGo reporter,-12.1%,-25.1%,12.1%,.,39.1%[activator],-23.5%,.,-11.1%
NS1 function inh,-8.4%,-141.7%,-9.4%,16.0%,.,2.1%,-10.7%,2.7%
Marburg entry inh,1.0%,.,.,.,?,-29.6%,9.8%,?
LASV entry inh,?,.,.,.,2.9%[46.1 µM],?,1.1%,-17.3%
RE007 growth inh,6.3%,?,-8.1%,.,.,16.5%,2.3%,2.5%
Cruzain Triton,3.3%,.,.,2.2%,-1.7%,0.6%,-2.0%,.
Cruzain inh noDet,13.6%,.,.,?,3.0%,?,?,.
SARS PLP yeast,-4.9%,-31.1%,-1.4%,-0.4%,.,1.0%,-0.6%,-6.7%

25	COc1ccc(C2c3c(ncn(CCCO)c3=N)Oc3ccc4ccccc4c32)cc1OC (configuration not stated)
26	CCOC(=O)C1CCN(c2ncnc3c2c(-c2ccccc2)cn3-c2ccccc2)CC1
27	O=C(Cc1cccs1)NNC(=S)NCc1ccc(Cl)cc1
28	O=C(Nc1ccc(N2CCN(C(=O)c3ccco3)CC2)cc1)c1cccnc1Cl
29	CN1CCN(C(=O)/C(=C/c2cccnc2)NC(=O)c2cccc(Br)c2)CC1
30	COc1cc(C2NC(=O)NC(O)(C(F)(F)F)C2C(C)=O)cc(OC)c1OC (configuration not stated)
31	CC(=O)Nc1nnc(SCc2ccc(F)cc2)s1
32	Cc1ccc(N2CC(C(=O)Nc3ccccc3C(=O)NC3CCCCC3)CC2=O)cc1C (configuration not stated)
Screen / compound no.,25,26,27,28,29,30,31,32
StopGo reporter,-15.2%,-29.4%,-23.4%,-11.2%,33.8%[activator],8.6%,.,2.9%
NS1 function inh,9.8%,.,11.7%,4.2%,6.4%,10.3%,-12.7%,.
Marburg entry inh,8.5%[46.1 µM],?,-15.7%,1.3%,?,-0.5%,21.7%,?
LASV entry inh,?,?,-4.7%,-13.5%,16.0%,7.6%,16.1%,?
RE007 growth inh,-1.3%,12.4%,4.3%,-9.6%,6.1%,0.4%,4.9%,36.6%
Cruzain Triton,.,.,6.3%,.,.,8.9%,8.5%,.
Cruzain inh noDet,.,.,0.5%,.,.,8.3%,-1.0%,.
SARS PLP yeast,0.7%,-7.5%,12.6%,0.2%,2.8%,14.6%,2.3%,.

33	CCOc1ccc(CCNC(=O)COC(=O)c2cccc(S(=O)(=O)N3CCOCC3)c2)cc1OCC
34	COc1ccc(-n2nnc(-c3nsc(NC(=O)c4cccc(C)c4)n3)c2C)cc1OC
35	COc1cc(OC)cc(-c2cc3nc(C)c(CCC(=O)NCc4ccccc4)c(C)n3n2)c1
36	CCc1cc(C(=O)Cc2ccc(F)cc2)c(O)cc1O
37	COC(=O)COc1cccc2c(=O)n(CC(=O)NCCc3ccc(OC)c(OC)c3)ccc12
38	CCc1ccc(CN2CCC(n3nccc3NC(=O)c3ccc4c(c3)OCO4)CC2)cc1
39	O=C(CSc1nnc(CNC(=O)c2ccccc2)o1)NCCc1ccccc1
40	COc1ccc(NC(=O)CSc2nnnn2C2CCCC2)c(OC)c1
Screen / compound no.,33,34,35,36,37,38,39,40
StopGo reporter,-15.8%,?,5.62µM*,-0.1%,-24.9%,-3.9%,-6.0%,-5.4%
NS1 function inh,.,.,-61.4%,-47.1%,13.4%,5.3%,14.1%,3.5%
Marburg entry inh,-15.7%[46.1 µM],.,11.2µM*,?,42.9%,7.3%,29.0%,14.3%[46.1 µM]
LASV entry inh,9.9%,-4.0%[46.1 µM],8.91µM*,?,-2.4%,?,?,5.3%
RE007 growth inh,19.1%,.,-12.2%,-28.4%,-0.8%,-11.2%,7.0%,32.6%
Cruzain Triton,.,-3.9%,-13.0%,-17.6%,5.3%,.,.,.
Cruzain inh noDet,.,14.9%,?,-3.0%,-3.3%,.,.,.
SARS PLP yeast,2.7%,.,-8.8%,-19.9%,-4.7%,20.9%,3.8%,-8.8%

41	COc1ccccc1/C=C/C(=O)N1CCc2cc(OC)c(OC)cc2C1C (configuration not stated)
42	Cc1c(C2=CCN(S(=O)(=O)c3ccc(Br)cc3)CC2)c2ccccc2n1CC(=O)N1CCCC1
43	COc1ccc(-c2nnc(SC)n2C)cc1
44	COc1ccc(C2=NCC(=O)N(CC(=O)NCc3ccco3)c3sc4c(c32)CCCC4)cc1OC
45	CCOC(=O)c1ccc(NC(=O)C(C)Sc2nc(O)c(-c3ccccc3)c(=O)[nH]2)cc1 (configuration not stated)
Screen / compound no.,41,42,43,44,45
StopGo reporter,-7.3%,39.9%[activator],19.9%,.,-2.8%
NS1 function inh,-9.6%,.,-4.6%,-30.4%,5.7%
Marburg entry inh,?,-5.0%[46.1 µM],19.0%,-5.9%,2.2%[46.1 µM]
LASV entry inh,?,8.3%[46.1 µM],-8.0%,?,-12.4%
RE007 growth inh,3.7%,.,-0.5%,11.2%,2.7%
Cruzain Triton,.,-1.2%,3.3%,-5.8%,.
Cruzain inh noDet,.,-6.8%,-0.5%,?,.
SARS PLP yeast,-1.4%,.,12.9%,-0.9%,0.0%

Reprinted at random: 4 records from the list
42	Cc1c(C2=CCN(S(=O)(=O)c3ccc(Br)cc3)CC2)c2ccccc2n1CC(=O)N1CCCC1
44	COc1ccc(C2=NCC(=O)N(CC(=O)NCc3ccco3)c3sc4c(c32)CCCC4)cc1OC
43	COc1ccc(-c2nnc(SC)n2C)cc1
45	CCOC(=O)c1ccc(NC(=O)C(C)Sc2nc(O)c(-c3ccccc3)c(=O)[nH]2)cc1 (configuration not stated)
Screen / compound no.,42,44,43,45
StopGo reporter,39.9%[activator],.,19.9%,-2.8%
NS1 function inh,.,-30.4%,-4.6%,5.7%
Marburg entry inh,-5.0%[46.1 µM],-5.9%,19.0%,2.2%[46.1 µM]
LASV entry inh,8.3%[46.1 µM],?,-8.0%,-12.4%
RE007 growth inh,.,11.2%,-0.5%,2.7%
Cruzain Triton,-1.2%,-5.8%,3.3%,.
Cruzain inh noDet,-6.8%,?,-0.5%,.
SARS PLP yeast,.,-0.9%,12.9%,0.0%
